gsp antagonist: gsp mutant antagonism | gsp-mutant cells, cAMP HTRF, 30 min; control for the full effect not named in the record | AID 624288 | Potency, µM (highest dose often 76.9 µM), for inactives: at the highest dose activity change, negative = inhibition, most hits filed as inhibitors | actives 0.4% (n = 340,000); active = falling curve of any shape with a large fitted effect; inconclusive = falling curve, mostly with a smaller effect; inactive = flat or rising curve; cell line not stated here;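 also: intracellular cAMP measured with PDE inhibitor Ro 20-1724 present during compound exposure; potency is read from the fitted curve at half-maximal effect; % is scaled to controls: 0 for no effect and ±100 for the full control effect; nearly all actives have a fitted effect of over 65% in size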
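HTRF cAMP measurement after 30 min RT detection following 30 min, 37C compound treatment alongside […] (added as 300 uM solution) in G418-selected cells seeded at 2000/well and grown 16–24 h.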
TRPV1 potentiator: potentiators of human vanilloid receptor 1 (TRPV1) | Q8NER1 | TRPV1-expressing cells, Fluo-8 calcium influx, capsaicin EC20 potentiation; host cell line not named in the record; control for the full effect not named in the record | potentiation, % at 8.33 µM | actives 0.02% (n = 320,000) | AID 540277; active means potentiation above 80%; inconclusive means 30% to 80%; inactive means below 30%; also: 0% is about no effect
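Fluo-8 calcium influx in TRPV1-expressing cells, kinetic read (ex 480/em 520 nm). Compound added and read 3 min for agonist activity, followed by capsaicin at EC20 final and 2 min further read for enhancement.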
Menin-MLL FL inh: displaces fluorescein MLL peptide from human menin. Fluorescence polarization, fluorescein-MLL peptide displacement from menin. FP activity change, % at 61.4 µM. AID 1766. 290,000 tested, under 10 active; inconclusive = falling polarisation curve, or a change in total fluorescence; inactive = total fluorescence flat and polarisation flat or rising; no compound was filed as active; the % refers to the polarisation; negative = inhibition;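 also: % of control where 0% means no effect; inhibitors lower the polarisation; unlabelled MLL peptide was the positive control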
Sfp PPTase inh: blocks B. subtilis Sfp PPTase activity; Q9F4F7; Biochemical Sfp PPTase activity, qHTS; Potency, µM, without a hit: max response, negative = inhibition, most hits filed as inhibitors; actives 3.5% (n = 310,000); active = well fitted inhibition curve with a large enough effect; inconclusive = small, poorly fitted or top-dose-only effect, or another doubt; inactive = no such curve, though single readings can be large or run the other way;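 also: the enzyme is Sfp with the accession as filed and its product quenches rhodamine fluorescence; potency is read from the fitted curve at half-maximal effect; 0% = enzyme reaction without inhibitor and -100% = no enzyme wells; top concentration of the series not given in the record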
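Buffer: 50 mM Hepes-Na pH 7.6, 10 mM MgCl2, 0.01% Nonidet P-40, 0.01% BSA. Enzyme 15 nM, pre-exposed to compound 15 min; substrates then added and fluorescence change tracked over 30 min.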
ClpP mod: qHTS Assay for Activators of ClpP. ATP-dependent Clp protease proteolytic subunit (Bacillus subtilis (strain 168)), P80244. purified B. subtilis ClpP, FRET peptide cleavage, 20 min. Potency, µM (highest dose often 57.5 µM), inactives show at the top dose activity change, negative = active. actives 1.9% (n = 340,000); active = well fitted falling curve with a large enough effect; inconclusive = small, poorly fitted or top-dose-only effect; inactive = no such curve, though single readings can be large or run the other way; also: potency is read from the fitted curve at half-maximal effect; the source files actives as falling curves though it sought activators and does not explain the sign; nearly all actives have a fitted effect of over 65% in size; many hits overshoot -100%
Target sequence (P80244 whole entry, looked up): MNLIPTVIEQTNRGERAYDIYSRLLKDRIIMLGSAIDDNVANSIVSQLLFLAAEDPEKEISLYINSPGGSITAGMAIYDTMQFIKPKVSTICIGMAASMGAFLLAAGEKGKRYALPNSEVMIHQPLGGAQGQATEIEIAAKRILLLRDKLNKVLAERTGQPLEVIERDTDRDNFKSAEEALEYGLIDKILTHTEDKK
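FRET quenching reversal measured ClpP activation: 10 microg/mL B. subtilis ClpP at pH 8 with the FRET-FV decapeptide, read at 430 nm after 320 nm excitation. The 20-min minus 0-min signal was scaled between DMSO/no-enzyme wells and ADEP (5.8 microM final).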
TRPML1 inh: inhibitors of human TRPML1 channel | activity change, negative = inhibition, % (test concentration not listed) | actives 0.02% (n = 390,000) | TRPML1-inducible cells, Ca2+ dye fluorescence, FDSS; hits give low values; inhibition of EC80 agonist-evoked calcium signal; in the data active means activity change below about -50%; inconclusive means about -30% to -50%; inactive means above about -30%;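 also: stimulus is agonist 54-4 at its EC80 concentration; % is scaled to controls: 0 for no effect and ±100 for the full control effect; compound concentration not given in the record; the text of the record puts the active cut at -80%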
Target sequence (Q9GZU1 whole entry, looked up): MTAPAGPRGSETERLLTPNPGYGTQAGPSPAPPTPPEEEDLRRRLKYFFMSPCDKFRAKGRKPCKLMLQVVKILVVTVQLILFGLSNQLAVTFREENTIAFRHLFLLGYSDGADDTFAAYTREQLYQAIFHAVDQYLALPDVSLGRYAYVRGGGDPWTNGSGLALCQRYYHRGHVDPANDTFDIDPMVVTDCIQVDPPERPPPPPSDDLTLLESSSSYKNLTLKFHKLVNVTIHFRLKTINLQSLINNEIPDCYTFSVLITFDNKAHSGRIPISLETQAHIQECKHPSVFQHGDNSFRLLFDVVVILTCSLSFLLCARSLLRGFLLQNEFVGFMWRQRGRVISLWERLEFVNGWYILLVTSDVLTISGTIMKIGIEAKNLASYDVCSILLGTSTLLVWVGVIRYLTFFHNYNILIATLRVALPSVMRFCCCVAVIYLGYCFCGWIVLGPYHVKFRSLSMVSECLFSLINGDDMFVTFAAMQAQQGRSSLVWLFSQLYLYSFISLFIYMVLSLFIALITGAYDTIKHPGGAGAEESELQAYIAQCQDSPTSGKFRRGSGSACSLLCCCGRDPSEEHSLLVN
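Calcium fluorescence in TRPML1-DL cells induced overnight with Tet: a 110 s read after compound pin addition, then a 110 s antagonist read after challenge with 54-4 at 4 uM final (EC80).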
gsp agonist: activates gsp, the McCune-Albright syndrome mutation; gsp mutant cells, cAMP HTRF, 30 min; control for the full effect not named in the record; actives 0.13% (n = 340,000); AID 624287; Potency, µM (highest dose often 76.9 µM), for the others: at the highest dose activation (cAMP increase), hits mostly activators; active = well fitted activation curve with a large enough effect; inconclusive = small, poorly fitted or top-dose-only effect, or another doubt; inactive = no such curve, though single readings can be large or run the other way; cell line not stated here;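 also: phosphodiesterase inhibitor Ro 20-1724 added with compounds to block cAMP breakdown; potency is read from the fitted curve at half-maximal effect; nearly all actives have a fitted effect of over 60% in size; about a fifth of the inactives were tested at one dose only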
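Cells in DMEM/10% FBS with G418 were pretreated with compounds in DMSO plus […] (300 uM stock) for 30 min at 37C. cAMP was measured by HTRF (cAMP-d2 plus anti-cAMP antibody-K) after 30 min at room temperature.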
Active calls of the source: *; ? = inconclusive; . = not tested or not shown; & = joins results of further samples; [ ] = remark or other dose.

compound | TRPML1 inh | ClpP mod | gsp antagonist | Sfp PPTase inh | Menin-MLL FL inh | gsp agonist | TRPV1 potentiator
O=C(O)CC(NC(=O)COc1ccccc1)c1cccc([N+](=O)[O-])c1 (centres undefined) | 15 | . | 9% | 8% | 2.5 | 8%[15.4 µM] | 9
COc1cc2c(cc1OC)C(c1ccccc1OC(C)C)CC(=O)N2 (centres undefined) | 16 | . | -2% | 6% | -2.1 | -50%[inhibitor] | -9
CCCCn1c(N)c(N(CCOC)C(=O)COC(=O)c2ccccc2NCCO)c(=O)[nH]c1=O | 1 | 4.3% | 3% | . | . | ? | .
O=C(Nc1cccc(O)c1)C(=O)Nc1ccccn1 | 2 | 1.6% | 11% | 12% | 1.5 | -13%[15.4 µM] | 2
O=C(NCC1OCCc2ccccc21)c1ccco1 (centres undefined) | 57 | -2.0% | -7%[15.4 µM] | -25% | 2.2 | 13% | -48
CCN(CC)S(=O)(=O)c1ccc(C)c(NC(=O)CSc2nnnn2C)c1 | 26 | -1.4% | 8% | . | . | ? | .
COc1ccc(-n2c(=O)c(CCC(=O)NCCc3ccccc3F)nc3ccccc32)cc1 | -7 | 0.0% | -10% | . | . | 12% | -4
Cn1c(Nc2ccc(Cl)cc2)cc(=O)n(C)c1=O | 14&7 | -3.0% | 1% | 9% | -0.8 | -32%[inhibitor] | -4
CC(=O)Nc1ccc(NC(=O)CCCSc2nc3ccccc3[nH]2)cc1 | 6 | . | 8% | -19% | 0.1 | -9%[15.4 µM] | 1
COc1cc(S(=O)(=O)N2CCOCC2)ccc1NC(=O)CN1c2cccc3cccc(c23)S1(=O)=O | -1 | -2.5% | 5% | 24% | 5.7 | 16%[15.4 µM] | 3
COc1ccc(Cl)cc1NC(=O)C/C(C)=N/NC(=O)c1ccc(O)cc1 | -14 | -0.2% | -21% | 11% | 5.1 | 1%[15.4 µM] | -21
Cc1ccc(NC(=O)CCc2ccc(C)o2)cc1 | 11 | . | 6% | 5% | 1.0 | -10% | -5
CCN1CCN(C(=O)/C=C\C(=O)O)CC1 | 42 | -1.0% | 15% | -1% | 0.7 | 0% | 2
OCCC1CN(Cc2ccc3ncccc3c2)CCN1Cc1ccccc1 (centres undefined) | 6 | . | -5% | 3% | 1.7 | ? | 3
Cc1nc2ccccc2c2oc(C(=O)N3CCC(N4CCCCC4)CC3)cc12 | -9 | -5.6% | 6% | 13% | -0.4 | 12% | -13
O=C(c1ccco1)N1CCN(S(=O)(=O)c2ccc(C3CCCCC3)cc2)CC1 | -9 | 0.6% | -5% | 8% | -1.4 | -2% | 3
CC(C)N1CCN(Cc2cnc(-c3ccccc3)s2)CC1CCO (centres undefined) | -5 | . | -3% | 7% | 0.6 | 30%[15.4 µM] | 4
Cc1cc(C)c(NC(=S)NC(=O)c2ccccc2)cc1C | -4 | -1.7% | . | . | . | 11% | .
CCN(CC)c1ccc(NC(=O)Cn2c(C(C)NC(=O)c3ccc(C)cc3)nc3ccccc32)cc1 (centres undefined) | -5 | . | 15% | -10% | 6.1 | 2%[15.4 µM] | 0
CCOC(=O)c1[nH]c(C)c(C(=O)/C=C/c2ccc(C(=O)O)cc2)c1C | -6 | . | -1% | 29% | 1.1 | -2%[15.4 µM] | 0
CCCN1CCC(NCc2cn(C)nc2-c2ccc(Oc3ccccc3)cc2)CC1 | 42 | -1.9% | 1% | -4% | 0.2 | 9% | 12
COc1ccc(C2/C=C\CN(C(=O)c3ccccc3)CC(=O)N2Cc2ccc(F)cc2)cc1 (centres undefined) | 36&18 | 2.0% | -9% | 20%&-12% | 0.9&-0.7 | . | ?
C#CCNC(=O)C1=C[C@@H](c2ccc(C#C)cc2)C[C@@H](OCCCCO)O1 | -20 | 1.4% | 3% | . | . | . | .
CCOC(=O)Cn1nc(-c2ccccc2)c2cnc3ccc(CC)cc3c21 | -1 | 3.8% | ? | -27% | 3.3 | -51%[inhibitor] | 0
CCOC(=O)C1CCN(C(=O)/C=C/c2ccc(S(=O)(=O)N3CCOCC3)cc2)CC1 | -15 | -0.5% | 0% | . | . | 12%[15.4 µM] | .
O=S(=O)(NNc1ccc(Cl)nn1)c1ccc(F)cc1 | -1 | 0.1% | -7% | 13µM* | -3.5 | 16%[15.4 µM] | -1
COc1ccc(CCNCC(O)c2ccccc2)cc1 (centres undefined) | -2 | . | 5% | -16% | -0.5 | 3%[15.4 µM] | 3
Cc1ccc(CNC(=O)CNC(=O)[C@@H]2Cc3ccccc3CN2C(=O)OC(C)(C)C)cc1 | 2 | . | 2% | 11% | 4.0 | 8% | -7
Cc1ccc(/C(O)=C/c2nc3ccccc3oc2=O)cc1 | -4 | . | -1% | ? | ? | -3%[15.4 µM] | 5
COc1cccc2[nH]c(C(=O)NCCCN3CCCC3=O)cc12 | 10 | 4.3% | 1% | -1% | . | 0% | 12
CCCN1CNc2c(c(=O)[nH]c(=S)n2CCc2ccccc2)C1 | 8 | . | 2% | ? | 6.5 | 5%[15.4 µM] | -14
Cc1nn(CC(=O)NCCCN2CCCC2=O)c(C)c1[N+](=O)[O-] | 10 | -0.1% | 5% | . | . | -26%[15.4 µM] | .
Cc1cc(C)c(NS(=O)(=O)c2ccc3c(c2)NC(=O)C(C)C(=O)N3)c(C)c1 (centres undefined) | 10 | -2.2% | 4% | 3% | -0.7 | -7% | -24
CCCNS(=O)(=O)c1cc(Br)cc2c1N(C(=O)CC)CC2 | 2 | 0.4% | 6% | 12% | -1.2 | 4% | 6
O=S(=O)(c1cccc(-c2nnco2)c1)N1CCCC1 | 41 | 0.3% | 9% | 11% | 0.7 | -14% | 14
Cc1[nH]c2ccccc2c1/C=C/c1cc[n+](C)cc1 | 7 | 1.7% | ? | -12% | ? | 8% | 7
Cc1nc(CS(=O)(=O)c2ccccc2)cc(Sc2ccccc2Cl)n1 | 61 | -2.0% | -4% | 6% | -2.8 | 0% | -4
O=C(NCCCn1ccnc1)c1nc(Cn2cc(Br)cn2)no1 | -1 | -4.7% | 14% | 21% | . | ? | 1
Cn1c(=Nc2ccc(N3CCOCC3)cc2)ccc2ccccc21 | 5 | 3.1% | -5% | 7% | -1.4 | -5% | 0
Cc1cccc(CSc2nc3c(c(=O)[nH]2)CCC3)c1 | -2&5 | 0.2%&0.1% | 11% | 9% | 0.8 | -10% | -4
O=C(Cn1nnc(-c2ccccc2)n1)N1CCCCC1 | 10 | -2.0% | -13% | 12% | -1.0 | 1%[15.4 µM] | -8
CCNc1c(NC(C)=O)c(=O)oc2ccccc12 | -2 | . | -3% | 2% | . | 3%[15.4 µM] | 6
COC(=O)C1=NNC(C(=O)c2ccco2)C1c1ccccc1 (centres undefined) | -3 | -1.8% | -3% | 23% | 0.7 | -3% | 4
Cc1cc2nnc(SCC(=O)OC(C)C)n2c2ccccc12 | 3 | ? | -11% | 4% | 5.5 | 18% | -5
Cc1ccc2nc(SCC(=O)NNC(=O)c3ccccc3)[nH]c2c1 | 28 | 0.2% | 13% | 11% | 17 | -19% | 6
Cc1ccc(S(=O)(=O)NC2c3cccc4cccc(c34)C2Sc2nncn2C)cc1 (centres undefined) | 9 | -0.9% | -6% | 1% | -0.3 | 10%[15.4 µM] | 0
O=C(NC1CCCN(Cc2ccccc2F)C1)C1CCC1 (centres undefined) | 8 | -3.6% | -7% | 8% | -1.3 | 11%[15.4 µM] | 11
CCCn1nc2cc(C(=O)NCCc3cccs3)ccc2c1OCC | 9 | 4.9% | 2% | 14% | -3.2 | 23% | -21
c1ccc(CSc2cc3ccccc3[nH]2)cc1 | -20 | . | -1% | . | . | 6% | .
O=C(CCN1C(=O)C2CCCCC2C1=O)Nc1nc2c(F)cc(F)cc2s1 (centres undefined) | 16 | -0.1% | 6% | . | . | 23% | -9
O=C1CCCc2sc3c(c2N1)CCCCC3 | 9 | -2.8% | -16% | 2% | -0.2 | -19% | -8
CCSCCOC(=O)C1=C(C)N(C)C(=O)NC1c1ccc2c(c1)OCO2 (centres undefined) | -12 | 4.6% | -9% | 10% | -0.2 | 22% | 16
Cc1cc(S(=O)(=O)N2CCCCCC2)c(Cl)cc1Cl | 29 | -1.7% | ? | -10% | 0.0 | 22% | 4
CN1CCN(S(=O)(=O)c2ccc(NC(=O)c3cccc(S(=O)(=O)N4CCCC4)c3)cc2)CC1 | 1 | -1.0% | -3% | -5% | 0.1 | -12% | -12
CCC(C)NCCOc1ccc(C)cc1[N+](=O)[O-] (centres undefined) | 2 | . | 10% | -18% | 4.8 | 1%[15.4 µM] | 5
COC(CNC(=O)c1cccc2c1C(=O)N(Cc1cccnc1)C2)OC | 2 | 0.4% | 11% | 1% | -6.3 | 26% | 18
COc1ccc(N(CC(=O)N2CCCCCC2)S(=O)(=O)c2c(C)[nH]c(=O)[nH]c2=O)cc1 | 2 | 0.0% | -1% | 18% | 3.9 | -82%[inhibitor] | -11
O=C1CC(Cc2ccccc2)C(=O)N1c1ncccn1 (centres undefined) | -4 | . | 1% | 13% | -0.1 | 18% | -19
O=C(O)c1cc(-c2cccnc2)nc2ccccc12 | 12 | . | -9% | 9% | 1.6 | 14%[15.4 µM] | ?
C[C@H]1CCCCO[C@H](CN(C)C(=O)C2CCCCC2)[C@@H](C)CN([C@@H](C)CO)C(=O)c2cc(NC(=O)NC3CCCCC3)ccc2O1 | 0 | -8.5% | . | . | . | 5% | .

(listing goes on)
compound | TRPML1 inh | ClpP mod | gsp antagonist | Sfp PPTase inh | Menin-MLL FL inh | gsp agonist | TRPV1 potentiator
CC(C)(C)C(=O)Cn1ncc(Cl)c(Cl)c1=O | -6 | -5.9% | -12% | 22% | 0.0 | 5% | -4
CC1CCc2sc3ncn4nc(C(=O)NCc5ccco5)nc4c3c2C1 (centres undefined) | 4 | ? | 2% | 5% | 1.9 | 8% | -24
O=C(COc1ccccc1Cl)NCc1nc(-c2ccccc2)no1 | 2 | 1.5% | -1% | 9% | 1.0 | -37%[inhibitor] | 0
Cc1ccccc1NC(=O)CCCNC(=O)c1ccc(Cl)cc1 | 12 | . | 4% | 0% | -15 | 0% | -4

Screening data: PubChem BioAssay, National Center for Advancing Translational Sciences (NCATS)
